# Screening data (PubChem)
# PKD1 kinase inh: inhibitors of human PKD1 kinase, biochemical, fluorescence polarization; Serine/threonine-protein kinase D1 (Homo sapiens), Q15139; PKD1 kinase fluorescence polarization assay; inhibition, %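 (about 10 µM by stock and volumes)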; 0.056% of 200,000 active;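 active means inhibition of 50% or more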;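 further: controls were vehicle for no effect and a reference inhibitor for full effect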
# Target sequence (Q15139 whole entry, looked up): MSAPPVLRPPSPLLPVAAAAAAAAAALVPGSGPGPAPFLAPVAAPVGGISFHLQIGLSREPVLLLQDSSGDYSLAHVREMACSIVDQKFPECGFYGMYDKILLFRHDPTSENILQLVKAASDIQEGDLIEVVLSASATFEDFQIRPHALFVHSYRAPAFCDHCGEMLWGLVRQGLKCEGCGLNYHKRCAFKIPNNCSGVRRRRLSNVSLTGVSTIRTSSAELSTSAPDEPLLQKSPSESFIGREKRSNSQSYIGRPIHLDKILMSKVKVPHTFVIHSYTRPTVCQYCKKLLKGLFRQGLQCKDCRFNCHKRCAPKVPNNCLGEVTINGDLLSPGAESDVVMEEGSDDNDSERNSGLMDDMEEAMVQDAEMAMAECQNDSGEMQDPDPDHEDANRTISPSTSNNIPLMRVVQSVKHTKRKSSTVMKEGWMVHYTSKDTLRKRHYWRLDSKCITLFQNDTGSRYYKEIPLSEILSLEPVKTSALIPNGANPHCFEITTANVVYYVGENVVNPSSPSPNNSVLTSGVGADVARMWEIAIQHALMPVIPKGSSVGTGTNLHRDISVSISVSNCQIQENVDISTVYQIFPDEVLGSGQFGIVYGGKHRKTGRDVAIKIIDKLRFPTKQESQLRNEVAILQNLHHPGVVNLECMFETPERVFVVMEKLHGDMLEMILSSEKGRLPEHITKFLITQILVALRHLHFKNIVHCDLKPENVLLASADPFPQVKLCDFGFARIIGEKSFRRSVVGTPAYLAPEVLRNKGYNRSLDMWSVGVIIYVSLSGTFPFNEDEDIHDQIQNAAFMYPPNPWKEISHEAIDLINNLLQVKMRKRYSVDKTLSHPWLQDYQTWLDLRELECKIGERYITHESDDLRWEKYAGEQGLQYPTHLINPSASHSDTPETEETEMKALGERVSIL
# Insulin prom inh: inhibitors of insulin promoter-driven GFP, primary screen, imaging, TRM-6 cells (human fetal islet line), eGFP reporter, cell count | reporter expression induced with tamoxifen | inhibition, % at 2 µM | 0.9% of 130,000 active;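 active means inhibition above the mean plus 3 SD, with well images judged a real hit on visual review, cut at about 60% in these data, passing the limit was not always enough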
# RGS16-Gao: modulators of RGS16 binding to Galphao, primary screen, biochemical, human proteins, multiplexed bead flow cytometry; bead-based flow cytometry RGS16-Galphao binding, fluorescence; actives lie on both sides; binding response (% of control), % at 10 µM; 0.38% of 220,000 active; Regulator of G-protein signaling 16 (Homo sapiens) + Guanine nucleotide-binding protein …;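 active means below 25% or above 175%, edge rows of some plates excepted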;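 further: Galphao activated by GDP with aluminum fluoride before binding; 100% = wells without compound and 0% = beads without RGS; some results beyond the cut were filed as inactive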
# GALR2 ag: GALR2 receptor agonists, primary screen, cell-based; activation, %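 (tested at 5 µM)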; GALR2-expressing cells, agonist activation read-out; 0.48% of 140,000 active; Galanin receptor type 2 (Homo sapiens), O43603;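 active means above mean plus 3 SD of all compounds, about 5% in these data, not always enough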;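 further: 0% = vehicle buffer wells and 100% = reference agonist at full effect; tested in CHO reporter cells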
# HSV replic up: enhancers of HSV replication in host cells, fold increase, host cell viability. HSV replication augmentation in cells. 0.005% of 220,000 active. maximum fold increase;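 active means peak rise of 1.5-fold or more in the series; tested in PC3 cells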;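 further: first round at 10 µM; read as green reporter fluorescence; hits show the peak of a series up to 25 µM; 1 = signal of infected wells without compound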
# Insulin prom inh cell count: second read-out of Insulin prom inh, no call of its own (marks repeat the call); normalized cell count, %; measured here: cell count, toxicity; reference of the scale not given here;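 cells exposed to compound for 48 h; stained nuclei by imaging scaled within each plate; lower means fewer cells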
# HSV replic up primary fold: second read-out of HSV replic up, no call of its own (marks repeat the call); fold increase; compound at 10 µM; measured here: primary screen fold increase 10 uM; tested in PC3 cells;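 GFP signal in the first replicate; 1 = infected wells without compound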
# The depositor's hits bear a star; i = inactive; x = not tested or not shown.
# The opening 2 compounds (preview)
# Every second line gives: PKD1 kinase inh	Insulin prom inh	Insulin prom inh cell count	RGS16-Gao	GALR2 ag	HSV replic up	HSV replic up primary fold
> O=Cc1cccc(Oc2ncccn2)c1
    -3	20	115	96	x	i	0.96
> Cc1cc(C)c(OCC(O)CN2CCN(c3ccccn3)CC2)c(C)c1 (stereo unspecified)
    -4	x	x	102	x	i	0.97

# This part in full, repeating the preview:
# Every second line gives: PKD1 kinase inh	Insulin prom inh	Insulin prom inh cell count	RGS16-Gao	GALR2 ag	HSV replic up	HSV replic up primary fold
> O=Cc1cccc(Oc2ncccn2)c1
    -3	20	115	96	x	i	0.96
> Cc1cc(C)c(OCC(O)CN2CCN(c3ccccn3)CC2)c(C)c1 (stereo unspecified)
    -4	x	x	102	x	i	0.97
> CCN(CC)S(=O)(=O)c1cc(C(=O)Nc2cc(Cl)ccc2N2CCN(C)CC2)ccc1Cl
    5	24	92	101	0.3	i	0.56
> Cc1cc(C)n2c(SCC(=O)Nc3ccc(F)cc3)nnc2n1
    x	x	x	87	x	i	1
> Cc1cc(C(=O)CSc2nnc(-c3ccccc3)n2Cc2ccc3c(c2)OCO3)c(C)n1C
    6	x	x	89	0.0	i	1.1
> CSC(=S)N/N=C/c1ccc(Br)cc1
    2	25	83	97	x	i	0.88
> CCc1ccc(Nc2cnn(C34CC5CC(CC(CC(=O)O)(C5)C3)C4)c(=O)c2Cl)cc1
    -3	48	101	102	x	i	1
> N#CC1=C(N)N(c2ccccc2Sc2ccccc2)C(=O)C1
    -7	x	x	100	-0.7	i	1
> O=C(Cn1cnc2ccccc21)N/N=C/c1ccc([N+](=O)[O-])cc1
    2	10	112	101	-1.3	i	0.81
> Cn1nc(C(F)(F)F)c(-c2ccc(F)cc2)c1NC(=O)CSCC(=O)O
    x	x	x	101	x	i	1.1
> NC(=S)c1c(Cl)cc(C(F)(F)F)cc1Cl
    x	x	x	106	x	i	1.3
> Cc1cc(C)c(S(C)(=O)=O)c(NN)n1
    0	9	89	96	x	i	0.87
> CN1CCN(C(=S)c2cn(CCOc3ccccc3)c3ccccc23)CC1
    1	x	x	106	x	i	0.85
> CCOc1nc(-c2ccc(C)cc2)ccc1-c1noc(-c2cccnc2)n1
    5	-262	77	101	-1.5	i	0.92
> CC(=O)Nc1cccc(NC(=O)c2sc3ncn(CC(=O)N4CCCCC4)c(=O)c3c2C)c1
    -13	x	x	98	-1.3	i	0.9
> COc1ccc(/C=C2\N=C3CCCN3C2=O)cc1
    x	x	x	97	x	i	0.83
> Cc1nc(SCC(N)=O)[nH]c(=O)c1Cc1ccc(OC(C)C)cc1
    0	x	x	93	-0.6	i	1
> Cc1ccc(C(=O)NC(=S)Nc2ccc(N3CCOCC3)cc2)cc1
    9	x	x	105	x	i	1
> NNC(=O)c1ccc(Cl)cc1Cl
    -3	-23	102	68	0.2	i	0.97
> CCN1CCN(c2nc3ccccn3c(=O)c2/C=C(\C#N)S(=O)(=O)c2ccccc2)CC1
    x	x	x	103	x	i	1
> COc1cccc(NC(=O)CN(C)C(=O)COc2ccc3ccccc3c2)c1
    -13	x	x	112	-0.5	i	0.95
> O=C(CN1CCOCC1)N1CCN(c2ccc3ccccc3n2)CC1
    0	x	x	109	x	i	0.93
> CC(=O)Nc1cc(OC(C)=O)c2nonc2c1OC(C)=O
    4	i	6	x	0.0	i	0.89
> N#C/C(=C\Nc1ccc2c(c1)OCCO2)C(=O)NCc1ccco1
    x	x	x	102	x	i	0.97
> CC1CCCN(C(=O)CN2CCN(C(=O)c3ccco3)CC2)C1 (stereo unspecified)
    -2	63	91	116	-1.8	i	0.97
> NC(=S)Nn1c(-c2ccccc2)nc2ccccc2c1=O
    -10	-3	143	103	0.8	i	1
> CCOC(=O)c1ccc(NC(=O)CC2SC(=NC)N(C)C2=O)cc1 (stereo unspecified)
    -7	69	48	93	0.0	i	0.85
> O=C(CSc1nnc(-c2ccc(Cl)cc2)n1Cc1ccco1)NCc1ccc2c(c1)OCO2
    -3	-80	93	101	-0.9	i	0.88
> CCOC(=O)C1CCN(c2c(NCc3ccc(C(=O)NCCOC)cc3)c(=O)c2=O)CC1
    -6	x	x	101	-0.8	i	0.78
> O=C(Cn1c(NCCO)nc2ccccc21)NCC1CCCO1 (stereo unspecified)
    7	x	x	102	x	i	0.92
> CCC(=O)N1c2ccccc2NC2=C(C(=O)CC(c3ccco3)C2)C1c1ccco1 (stereo unspecified)
    -7	10	84	83	-1.2	i	1
> Cc1sc2nc(CSc3ccccc3)nc(NCCN(C)C)c2c1C
    6	-64	109	110	1.0	i	0.57
> COc1ccccc1N1CCN(C(=O)C(=O)N/N=C/c2cccc(O)c2)CC1
    2	3	76	105	-2.8	i	0.68
> COc1ccc(-n2ccnc2SCC(=O)NC2CCCC2)c(OC)c1
    5	x	x	102	x	i	1
> COC(=O)c1cc(OC)c(OC)cc1NC(=O)Nc1ccc(OC)cc1
    1	44	133	57	-1.1	i	0.94
> C=CCc1cc(Cl)ccc1OCCNCCCOC
    -1	15	122	94	-2.9	x	x
> CCNC(=S)N1CCN(CCN2C(=O)c3cccc4cccc(c34)C2=O)CC1
    -7	x	x	98	x	i	0.78
> Cc1cc([N+](=O)[O-])nn1CC(=O)Nc1ccc(Cc2ccncc2)cc1
    -12	-42	109	70	-1.4	i	0.89
> COc1ccc(NC(=O)Nc2cccnc2)c(OC)c1
    -4	x	x	98	x	i	0.97
> S=C1NC2(CCCCC2)NN1c1ccccc1
    4	x	x	93	x	i	1.1
> O=C(CNC(=O)c1ccco1)NCC(=O)OCc1ccc(C(=O)Oc2ccc(Cl)cc2)cc1
    -7	-208	100	105	-2.4	i	0.64
> O=C(CSc1nnc(CCCN2C(=O)c3cccc4cccc(c34)C2=O)n1-c1ccccc1)N1CCN(CCO)CC1
    -17	x	x	106	-0.5	i	1.1
> COC(=O)c1sc(NC(=S)NC(=O)c2ccc(C)cc2)nc1C
    x	x	x	100	x	i	1.1
> CCO[C@H]1OC(C(=O)O)=C[C@@H](C2CCCCC2)[C@@H]1CCCO
    2	x	x	105	x	i	0.75
> O=C(NNc1ccc([N+](=O)[O-])cc1)c1ccccc1Cl
    -1	69	109	105	x	i	0.98

# Some entries already given, showing only HSV replic up primary fold, Insulin prom inh and Insulin prom inh cell count.
smiles | HSV replic up primary fold | Insulin prom inh | Insulin prom inh cell count
CN1CCN(C(=S)c2cn(CCOc3ccccc3)c3ccccc23)CC1 | 0.85 | x | x
CCOc1nc(-c2ccc(C)cc2)ccc1-c1noc(-c2cccnc2)n1 | 0.92 | -262 | 77
CC(=O)Nc1cccc(NC(=O)c2sc3ncn(CC(=O)N4CCCCC4)c(=O)c3c2C)c1 | 0.9 | x | x
COc1ccc(/C=C2\N=C3CCCN3C2=O)cc1 | 0.83 | x | x
Cc1nc(SCC(N)=O)[nH]c(=O)c1Cc1ccc(OC(C)C)cc1 | 1 | x | x

# Other structures follow:
# Every second line gives: PKD1 kinase inh	Insulin prom inh	Insulin prom inh cell count	RGS16-Gao	GALR2 ag	HSV replic up	HSV replic up primary fold
> C/C(=N\N=C(/N)SC1CC(=O)N(c2ccc(Br)cc2)C1=O)c1cccs1 (stereo unspecified)
    0	x	x	103	-1.7	i	0.89
> Cc1cc(-c2cccs2)c2c(N)c(C(=O)c3ccc4c(c3)OCO4)sc2n1
    1	x	x	96	-1.1	i	1
> O=S(=O)(NCC(c1cccnc1)N1CCN(c2ccccc2)CC1)c1cc(F)ccc1F (stereo unspecified)
    -3	11	135	101	-0.7	i	0.98
> CNC(=O)C1CCC(=O)N1Cc1ccccc1Cl (stereo unspecified)
    -6	-47	87	117	-2.2	i	0.97
> COc1ccc(F)cc1S(=O)(=O)NCc1ccccc1
    0	33	144	106	-0.4	i	0.96
> N#C/C(=C(/O)C(Cl)(Cl)Cl)c1nc2ccccc2[nH]1
    x	x	x	94	x	i	0.89
> COc1ccc(OC)c(NC(=O)CC2SC(=Nc3ccccc3)N(CCc3ccccn3)C2=O)c1 (stereo unspecified)
    -8	x	x	106	-3.1	i	0.87
> CCOC(=O)C1=C(C)Nc2ncnn2C1/C=C/c1ccccc1 (stereo unspecified)
    1	30	133	104	-1.7	i	0.79
> CC(C)n1nnnc1-c1cccc(Cl)c1
    -9	48	137	97	-1.7	i	1.1
> C[C@@H](O)[C@@H]1NC(=O)c2cc([N+](=O)[O-])cc(I)c2NCC[C@@H](C(N)=O)NC(=O)CNC1=O
    6	-60	82	98	0.0	i	1.1
> CC1CC(Nc2ccccc2)=NC1(C)C (stereo unspecified)
    0	0	108	107	-0.6	i	0.95
> C[C@@H]1C=C[C@](Cc2ccccc2)(C(=O)NCC2CC2)N1C(=O)c1ccccc1
    -9	0	128	105	-0.5	i	0.97
> COc1cc(/C=N/NC(=O)c2cccnc2)ccc1OCC(=O)Nc1ccc(C)cc1
    -13	33	162	102	-0.1	i	0.93
> Cc1cc(C(F)(F)F)nn1CC(=O)N(C)c1ccccc1
    2	56	125	107	x	i	0.96
> CC(C)(C)NC(=O)COc1ccc(CNCc2cccs2)cc1
    6	x	x	99	-2.7	i	0.83
> O=C(c1ccc(Cl)s1)N1CCOCC1
    9	45	84	100	-2.1	i	0.92
> CCOC(=O)c1ccc(NC(=O)C(CC)(CC)C(=O)OCC)cc1
    -9	14	111	69	-2.7	i	0.88
> CCOc1cc(C(=O)NCCOC)cc(OCC)c1OCC
    5	-5	147	111	-2.2	i	0.92
> COC(=O)c1cn(C(=O)c2ccc(Br)o2)c2ccccc12
    -14	0	98	108	-0.3	i	0.9
> COc1cccc(C2=NN(S(C)(=O)=O)C(c3cccs3)C2)c1 (stereo unspecified)
    -5	x	x	107	x	i	0.92
> CC(C)c1ccc(O)c(NC(=S)NC(=O)CCc2ccccc2)c1
    -7	x	x	103	x	i	1.1
> Cc1nc(N2CCCC2)c2nnn(Cc3ccccc3Cl)c2n1
    -9	x	x	103	0.2	i	1.1
> Cc1nnc(NC(=O)C2CCN(S(=O)(=O)c3ccc(Cl)cc3)CC2)s1
    -11	13	83	104	x	i	0.97
> O=C(N/C(=C/c1ccco1)C(=O)N1CCOCC1)c1cccs1
    -8	x	x	99	x	i	0.91
> Cc1csc(SCCn2c(N3CCN(c4ccccc4)CC3)nc3c2c(=O)[nH]c(=O)n3C)n1
    -2	-16	91	110	-1.4	i	0.95
> CCc1nc(Sc2nnnn2-c2ccccc2)c2c3c(sc2n1)CCCC3
    -1	32	77	112	-0.8	i	0.98
> Cn1c(NCCCO)nc2ccccc21
    -4	-11	110	105	-1.4	i	0.92
> c1ccc(N2CCN(c3ncnc4sc5c(c34)CCC5)CC2)cc1
    -7	-250	127	96	-2.5	i	1.1
> Oc1ccccc1N=Cc1sc2ccccc2c1Cl
    -5	x	x	103	-0.9	i	1.1
> O=C(Oc1ccc(N(Cc2cccs2)C2=NS(=O)(=O)c3ccccc32)cc1)c1ccccc1F
    8	7	82	101	-3.1	i	0.74
> Cc1cc(C)n(CC(O)COCc2ccccc2)n1 (stereo unspecified)
    4	36	110	104	-2.0	i	0.96
> CC(=O)c1ccc(N2CCN(C(=O)/C=C/c3ccc(S(=O)(=O)N4CCOCC4)cc3)CC2)cc1
    1	x	x	104	x	i	0.94
> COC(=O)c1ccc(NC(C)=O)o1
    15	x	x	97	-1.6	i	1.1
> O=C(/C(=C\c1ccccc1)c1nc2ccccc2[nH]1)c1ccc(Cl)cc1
    -3	x	x	96	-1.9	i	0.73
> COc1ccc(O)c(C(=O)CC(=O)c2ccc(F)cc2)c1
    -4	x	x	98	1.4	i	0.94
> CN(C)C1NC(=O)c2cc(-c3ccccc3)sc2N1 (stereo unspecified)
    -3	x	x	105	-0.8	i	1.1
> O=C(Nc1ccc(Cl)c(S(=O)(=O)N2CCOCC2)c1)c1ccccn1
    0	x	x	101	x	i	0.96
> O=C(CSc1nncs1)Nc1cc(-c2ccccc2)nn1-c1ccccc1
    -5	3	126	109	-0.3	i	1
> CS(=O)(=O)Nc1ccc(C2=NN(C(=O)C3CCCCC3)C(c3cccs3)C2)cc1 (stereo unspecified)
    -7	13	92	97	0.5	i	0.91
> CC(C)Cc1nc2sc3c(=O)n(N)cnc3c2c2c1COC(C)(C)C2
    -3	x	x	109	0.6	i	0.93
> CCOC(=O)C(C)Sc1ncc(OC)c(=O)[nH]1 (stereo unspecified)
    -8	0	108	100	-1.7	i	0.87
> CC[C@H](C)/C=C(C)/C=C/C(=O)Cc1cc(O)c(C)c(O)c1C=O
    x	x	x	101	x	i	0.81
> CCCCC(CC)C(=O)N1CCN(C(=O)c2ccco2)CC1 (stereo unspecified)
    -6	21	70	172	x	i	0.92
> NC(=O)c1c(-c2ccc(Cl)cc2Cl)csc1NC(=O)Cc1ccccc1
    -5	-59	123	104	0.5	i	0.96
